Tg IFNy HTS – T. gondii growth inhibition under IFN-gamma. Toxoplasma gondii growth in IFN-gamma-treated host cells; hits give low values; reference of the scale not given here. activity change, negative = inhibition, %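 (about 20 µM by stock and volumes)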. 69,000 tested, 3.8% active;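 active means below -70%; inconclusive means fit judged invalid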;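 further: host cells are HeLa cells infected with Toxoplasma gondii; parasite growth read as luciferase light; one replicate is shown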
* marks the source's active call; other numbers are inactive results; i = inactive; ? = inconclusive; & = joins results of further samples. These rows are one share of the data (hit frequency here may not be typical).

SMILES | Tg IFNy HTS
COc1cccc(Cn2ccnc2-c2ccc(C)o2)c1OC | 3
CCC(=O)NCc1ccccc1-c1cnc2ccccc2c1 | -1
Cc1nc2n(CC(=O)c3cccs3)c3ccccc3n2n1 | -11
Cc1ccc2[nH]c(CCCNC(=O)[C@@H]3C[C@H](N)CN3C)nc2c1C | -39
CCc1nc(C)sc1Cn1cnc(-c2ccccc2)c1-c1ccc(CO)o1 | 1
Cc1ccc(CN2CCN(Cc3ccc(O)c(Cl)c3)CC2=O)cc1 | -37
Cc1ccc(NC(=O)CN2C(=O)c3cccc4cccc2c34)cc1 | -53
COC(=O)c1cccc(CSC(=S)N2CCCC2)c1 | -44
CCN(C)C(=O)c1cnc(-c2noc3cc(N4CCCCC4)ccc23)s1 | -44
CCn1c(=O)c(-c2nc(-c3ccc(OC)c(OC)c3)no2)c(O)c2ccccc21 | 110
COCc1nc(NCc2nnc3n2CCCCC3)c2cnn(C)c2n1 | 8
O=C(NCCOc1ccccc1F)[C@H]1Cc2ccccc2CN1 | 21
Cc1ccc2[nH]cc(CCNC(=O)C3CCN(c4ccc(Cl)cc4)C3=O)c2c1 (stereo not drawn) | 128
CCc1nc2ccccc2n1CC(=O)Nc1ccc(-n2nc(C)cc2C)c(OC)c1 | 4
Cc1ccc(OCCN(C)Cc2ccccc2C(=O)O)c(C)c1 | 5
C[C@@H]1CCCCO[C@@H](CN(C)C(=O)Nc2ccccc2)[C@@H](C)CN([C@H](C)CO)C(=O)c2cc(NC(=O)Nc3ccccc3)ccc2O1 | -13
COc1ccccc1-n1cc(C(=O)N2CCCn3nc(C)cc3C2)cn1 | 16
Cc1c(C#N)c(Sc2ccccc2NS(=O)(=O)c2ccccc2)nc2ccccc12 | 12
O=C(NCc1cccs1)c1nc(N2CCOCC2)c2ccccc2n1 | -36
Cc1cccc(Nc2ccc(C3CCCN3C(=O)CCc3nc4ccccc4s3)nc2)n1 (stereo not drawn) | 5
Cn1c(CNS(=O)(=O)c2ccc(Cl)cc2)cc2ccccc21 | 33
COCCN(C)c1nc(C2CCN(C(=O)COC)CC2)cc2c1ncn2C | 8
CCCCCN(C)C(=O)c1ncn2c1CN(CC1CC1)S(=O)(=O)c1ccccc1-2 | -1
Cn1nccc1C(=O)C1CCN(C(=O)CN(CCc2ccccc2)S(C)(=O)=O)CC1 | -4
Cc1cc(C(=O)NC(c2nnc3n2CCNCC3)C(C)C)nc(C)n1 (stereo not drawn) | -4
O=C1CCC2(CCN1)CCN(c1ncc(Cl)cn1)CC2 | 9
CC(C)NC(=O)N1CCN(c2ccc3ccc(C(=O)NC4CCCC4)cn23)CC1 | 1
CCOc1ccc(NC(=O)CC(=O)N2CCOC3(CNCCOC3)C2)cc1 (stereo not drawn) | -15
O=C(C1CCC1)N1C[C@@H]2N[C@H](C1)C2c1ccc(/C=C/c2ccccc2)cc1 (stereo partly drawn) | -63&-44
COc1cccc(-c2ccc(C3[C@H]4CNC[C@@H]3N4C(=O)NC3CCCCC3)cc2)c1 (stereo partly drawn) | -7&-48
Cn1cc(C2CCCCCN2S(=O)(=O)c2ccc3c(c2)sc(=O)n3C)cn1 (stereo not drawn) | 84
O=C(C[C@@H]1CC[C@@H]2[C@H](COC[C@H](O)CN2S(=O)(=O)c2ccccc2F)O1)N1CCC(Cc2ccccc2)CC1 | -59
Cn1c(=O)c2c(nc(SCC(=O)Nc3nc(-c4cccs4)cs3)n2C)n(C)c1=O | -103*
CN1C(=O)N(C)C2(C(=O)NCc3ccccc3)N=CNN=C12 (stereo not drawn) | 23
Cc1nccn1-c1ccccc1CNC(=O)CC1C(=O)NCCN1C(C)C (stereo not drawn) | 41
COCCN(CC(=O)Nc1cccc(C)c1C)C1CCN(C)CC1 | -2
Nc1ncc(C(=O)N2CCCC(Nc3ccccc3)C2)c(-c2ccccc2)n1 (stereo not drawn) | 11
O=C(Nc1ccccc1OCc1ccccn1)c1cnc(-c2ccc(Cl)cc2)nc1 | -40
CN1C2(CCN(S(=O)(=O)c3ccccc3)C2)c2ccccc2S1(=O)=O (stereo not drawn) | -7
CC(=O)CSc1nnc(CSc2cc(C(F)(F)F)nc3ccccc23)n1C | 11
CCCc1cc(CN(C)c2nc(C)nc3sccc23)[nH]n1 | ?
Cc1cnccc1CN(C)C(=O)c1ccnc(N)c1 | 3
O=C(C[C@H]1CC[C@@H]2[C@H](COC[C@@H](O)CN2CCC(F)(F)F)O1)NCc1ccc2c(c1)OCO2 | -31
Cc1ccc2c(n1)N(CCn1cccn1)CCN(S(C)(=O)=O)C2 | -5
Cc1nc([C@H]2C[C@H]3CCN(C(=O)c4c(C)noc4C)C[C@@H]3O2)n[nH]1 | -11
Cc1cc(NC(=O)[C@@H]2C[C@H](c3cccs3)NS(=O)(=O)N2C)n(-c2ccccc2)n1 | 18
C[C@@H]1CCCCO[C@@H](CN(C)S(=O)(=O)c2ccccc2)[C@@H](C)CN([C@H](C)CO)C(=O)c2cc(NC(=O)Nc3ccc4c(c3)OCO4)ccc2O1 | -14
Cc1cc(C)n(Cc2cc(C(=O)N(C)CCc3ccccn3)n[nH]2)n1 | 3
Cc1cccc(CN2C(=O)CCC3C2CCN3C(=O)c2ccoc2)n1 (stereo not drawn) | 16
CO[C@H]1C=CO[C@@]2(C)Oc3c(C)c(O)c4c(O)c(c5c(nc6cc(C)ccn65)c4c3C2=O)NC(=O)/C(C)=C\C=C[C@H](C)[C@H](O)[C@@H](C)[C@@H](O)[C@@H](C)[C@H](OC(C)=O)[C@@H]1C | -20
COc1cccc(S(=O)(=O)N2C[C@H](O)COC[C@H]3O[C@@H](CC(=O)NCCCN4CCOCC4)CC[C@@H]32)c1 | 13
CCc1c(C)cc(C(=O)NCc2nc3ccc(OC)cc3[nH]2)c(=O)n1C | -3
Cc1ccc(C2(CNC(=O)CCn3c(=O)cc(C)c4ccccc43)CCOCC2)cc1 | 10
Cc1ccc(C(=O)N2C[C@@H]3CCCO[C@H]3[C@@H](N(C)Cc3ccco3)C2)o1 | -18
CC(=O)Nc1ccc(Cl)c(C(=O)N(C)Cc2ncc(C)[nH]2)c1 | -19
COc1cc(NC(=O)Cn2c(=O)ccc3cc(S(=O)(=O)N4CCCC4)ccc32)cc(OC)c1 | 225
CCc1cnc(N2C[C@H](OCCN(C)C)[C@@H]3COC[C@@H]32)nc1 | -15
Cn1cc(N2C[C@@H]3CN(Cc4ccoc4)C[C@H]3C2=O)cn1 | 14
Nc1nnn(CCOc2nonc2N)n1 | 7
CCOc1cc(CNCC2CCNCC2)cc(Br)c1OCC | -55

The listing continues.
SMILES | Tg IFNy HTS
Cc1ccc2[nH]c(CCCNS(=O)(=O)NCc3ccccc3)nc2c1C | 3
Cc1ccc(C(=O)N2CCC3(CC2)Nc2ccccc2-n2cccc23)cc1 | 22
CCCCC(c1nnnn1C1CCCCC1)N1CCN(CC)CC1 (stereo not drawn) | 7
CO[C@H]1CN(C)C(=O)c2cc(NC(C)=O)ccc2OC[C@H](C)N(C(=O)Cc2ccccn2)C[C@@H]1C | 105
CCCn1nnnc1SCC(=O)NCc1ccc(OC)cc1 | 4
O=C(C[C@H]1CC[C@@H]2[C@H](COC[C@H](O)CN2CCc2ccccc2)O1)NCCCN1CCOCC1 | -13
O=C(N1CCCC1)N1CCC2(CC1)CCN(CC1CC1)C2=O | 13
CCOC(=O)N1CCC2(CC1)OC(=O)C(C)=C2C(=O)NCc1ccccc1F | 58
Cc1nc2ccccc2c(=O)n1NC(=O)Cc1ccccc1 | 18
Cc1noc(C)c1CN1CC2C[C@H](C(=O)NCCN(C)C)N(C)C2C1 (stereo partly drawn) | -7
CC(C)CCC(=O)N1C[C@@H]2c3nc(NCC4CC4)ncc3CS(=O)(=O)[C@H]2C1 | -5
Cc1c(C(=O)NC(c2ccc3c(c2)OCCCO3)C(C)C)n[nH]c1-c1cccs1 (stereo not drawn) | 59

Three entries from above, arranged by number of heavy atoms, smallest number first:
SMILES | Tg IFNy HTS
Cc1noc(C)c1CN1CC2C[C@H](C(=O)NCCN(C)C)N(C)C2C1 (stereo partly drawn) | -7
Cc1ccc2[nH]c(CCCNS(=O)(=O)NCc3ccccc3)nc2c1C | 3
Cc1ccc(C(=O)N2CCC3(CC2)Nc2ccccc2-n2cccc23)cc1 | 22

Additional results.
SMILES | Tg IFNy HTS
COc1ccccc1NC(=O)N1C[C@H]2[C@@H](c3ccccc31)[C@H](CO)N2Cc1ccc2c(c1)OCO2 | 0
O=C(c1ccco1)N1CCO[C@]2(CCC[C@H]2COc2cccnc2)C1 | -7
Cc1ccc(-n2cccc2)c(NC(=S)Nc2c(C)cccc2Cl)c1 | 8
CCC(C)Sc1cc(C(F)(F)F)c(C(=O)Nc2c(C)cccc2C)cn1 (stereo not drawn) | -67
Cc1csc(NC(=O)CN2CCC(c3ccc(F)cc3)CC2)n1 | 9
Cc1ccc(C(=O)NCCSCc2ccccc2Cl)cc1 | -21
NCC[C@H]1CC[C@@H](NS(=O)(=O)c2ccc(Cl)cc2)[C@H](CO)O1 | -16
Cc1cc(C)c(C(=O)N2CCCN(CC3CC3)C(C(C)C)C2)c(=O)[nH]1 (stereo not drawn) | 0
O=c1n(-c2ccccc2)c(=O)n(Cc2ccccn2)n1Cc1ccccn1 | -10
Cc1ccc(-c2coc(-c3ccc(NC(=O)Nc4cccc(F)c4)cc3)n2)cc1 | 58
CN1C(=O)c2cc(NS(=O)(=O)c3cccc(F)c3)ccc2OC[C@@H]2O[C@@H](CC(=O)NCCN3CCCCC3)CC[C@@H]21 | -9
COc1ccccc1NC(=O)CN1CCC2(CC1)N=C(c1ccc(F)cc1)C(=O)N2 | 56

Some of the entries so far, as labelled records:
> Cc1cc(C)c(C(=O)N2CCCN(CC3CC3)C(C(C)C)C2)c(=O)[nH]1 (stereo not drawn)
- Tg IFNy HTS = 0

> O=c1n(-c2ccccc2)c(=O)n(Cc2ccccn2)n1Cc1ccccn1
- Tg IFNy HTS = -10

New compounds follow.
SMILES | Tg IFNy HTS
Cc1cnccc1N1CCCN(C2CCC3(CCNCC3)CC2)CC1 | 4
O=C1c2cc(OCCN3CCCCC3)ccc2-c2ccc(OCCN3CCCCC3)cc21 | -90*
Cc1ccc(C)c(-c2nc(CSc3nc4c(=O)[nH]cnc4n3-c3ccccc3)c(C)o2)c1 | -80*
CCCN(CCC)CCNC(=O)C1=C(C)C(=O)OC12CCN(S(C)(=O)=O)CC2 | 11
Cc1cnc(N2CCc3ncc(CNc4ccccn4)n3CC2)nc1 | 391
O=C(O)c1cccc(CC2CCN(C(=O)CCc3cccnc3)CC2)c1 | -4
COc1ccc(-c2nc(C)c(CCNS(=O)(=O)c3ccc(Cl)cc3)s2)cc1 | i
COCC1c2c(cnn2CC2CC2)CCN1C(=O)c1ccoc1C (stereo not drawn) | 3
N#C[C@@H]1[C@H](c2ccccc2)[C@H](CO)N1S(=O)(=O)c1cccc(F)c1 | 1
Cc1oc(C2CCN(C(=O)Nc3cc(F)cc(F)c3)CC2)nc1C(=O)N1CCCC1 | -28
O=C(Nc1cnc2n1CCCC2)c1cnnn1-c1ccccc1 | 7
O=S1(=O)N=C(Nc2cccc3ccccc23)c2ccccc21 | 10
Fc1cccc(F)c1CCC1CCCN(Cc2nnc(C3CC3)o2)C1 (stereo not drawn) | 3
O=C(CSc1nc(-c2ccco2)cc(C(F)(F)F)n1)N1CCc2ccccc2C1 | -1
COc1ccc(S(=O)(=O)N2C[C@@H](C(=O)NC(C)C)[C@H](C(=O)c3ccc(F)cc3)C2)cc1 | 5
CC(=O)N1CC[C@@H](OCc2ccccn2)[C@@H](Cc2ccccc2)C1 | 0
CCN(C(=O)c1ccc(NC(=O)C2CCC2)cc1)C1CCS(=O)(=O)C1 (stereo not drawn) | 3
CO[C@H]1CN(Cc2cn(-c3ccccc3)nc2-c2ccncc2)CC[C@H]1N | -13
COCCN1C[C@@H]2CN(S(=O)(=O)Cc3ccccc3)C[C@H]2C1=O | 10
O=C(NCCc1csc(-c2ccc(C(F)(F)F)cc2)n1)c1ccccc1Cl | 220
CC(C)c1noc(-c2cc(=O)n(CC(=O)NCc3ccccc3)c3ccccc23)n1 | 26
Cc1ccc(C2=NC3(CCN(Cc4ccc(Cl)cc4)CC3)NC2=O)cc1C | -44
O=C(CCN1CCOCC1)C1CC2(CO1)CN(Cc1ccccc1)c1ccccc12 (stereo not drawn) | 4
CO[C@H]1CN(C)C(=O)c2ccc(NC(=O)Nc3ccccc3Cl)cc2OC[C@@H](C)NC[C@@H]1C | -68
COc1ccc(Cl)cc1NC(=O)Cn1ncc2c(N3CCC(C)CC3)ncnc21 | -18
CC(C)C(=O)Nc1cc(-n2cnnc2)ccc1F | 5
C[C@H](CO)N1C[C@H](C)[C@H](CN(C)S(=O)(=O)c2cccs2)Oc2ncc(-c3cc4ccccc4o3)cc2C1=O | ?
Cc1nc2ccccc2n1C(C)C(=O)N1CCN(c2nccs2)CC1 (stereo not drawn) | -7
CCn1ncnc1CN1CCC(c2n[nH]c(=O)n2Cc2ccccc2)CC1 | 22
OC[C@H]1Nc2ccc(C#Cc3ccc(F)cc3)cc2[C@H]2[C@@H]1CCN2Cc1ccc2c(c1)OCO2 | -54
Cc1ccnc(NCCNC(=O)c2cc(C)[nH]n2)c1 | -3
O=C1Nc2ccccc2C12CCN(S(=O)(=O)c1cccs1)CC2 | -28

4 entries from above in another layout:
> NCC[C@H]1CC[C@@H](NS(=O)(=O)c2ccc(Cl)cc2)[C@H](CO)O1
  Tg IFNy HTS: -16
> Cn1cc(C2CCCCCN2S(=O)(=O)c2ccc3c(c2)sc(=O)n3C)cn1 (stereo not drawn)
  Tg IFNy HTS: 84
> O=C(NCCc1csc(-c2ccc(C(F)(F)F)cc2)n1)c1ccccc1Cl
  Tg IFNy HTS: 220
> Nc1ncc(C(=O)N2CCCC(Nc3ccccc3)C2)c(-c2ccccc2)n1 (stereo not drawn)
  Tg IFNy HTS: 11
